Screening results as filed in PubChem BioAssay.
NPYLR7 agonist = mosquito NPYLR7 agonism; HEK293T NPYLR7/Galpha15, GCaMP6s calcium fluorescence; hit rate 0.15% among 270,000; activation, % at 10 µM; in the data active = activation above about 40%;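 note: 0% = vehicle and 100% = reference agonist at the receptor; some compounds past the cut are filed as inactive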
NPYLR7 agonist max-min = second read-out of NPYLR7 agonist, no call of its own (marks repeat the call); activation, %; measured here: Max-Min RFU normalised activation; some inactives read as strong as hits;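 span of the calcium signal over five minutes; 0% = vehicle and 100% = native peptide agonist; compound fluorescence can raise it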
Active calls of the source: *; & = joins results of further samples.

Each structure is followed by: NPYLR7 agonist	NPYLR7 agonist max-min
Cc1ccc(CN2CCC(CN(C)Cc3ccc(N4CCNC4=O)cc3)CC2)o1
 : 1	-2
O=C(Nc1nc(-c2ccco2)c(-c2ccco2)s1)c1cnccn1
 : -6	-7
COc1ccc(-c2ccc(CCC(=O)NCCC#N)n2-c2ccc(SC)cc2)cc1
 : -4	-6
Cc1cc(C)cc(-n2nc(C(=O)N(C)C3CCCCC3)c(=O)n(Cc3cccc(Cl)c3)c2=O)c1
 : 1	8
COc1cc(CN2CCc3ccccc3C2)ccc1OCC(O)CN1CCSCC1 (configuration not stated)
 : 0	1
COc1ccc(-c2ccc(OCCNS(=O)(=O)N(C)C)nn2)cc1
 : -8	-18
CCCc1cc(NCC2CNCCOC2)nc(C)n1 (configuration not stated)
 : -1	43
CC1CCN(c2ncnc(N)c2[N+](=O)[O-])CC1
 : -2	-3
COc1cc(-c2onc(C)c2C(=O)NCCCN(C)C)cc(OC)c1OC
 : 5	2
CCCNC(=O)C1(C)CCCN(Cc2cccc3ccccc23)C1 (configuration not stated)
 : -11	-9
CCN(CC)CC#CC(C)(C)OC(C)=O
 : -10	-12
O=C1CCC([N+](=O)[O-])C(c2cc3c(cc2Cl)OCO3)N1 (configuration not stated)
 : 5	31
CCOCCn1c(N2CCN(Cc3ccc(C)cc3)CC2)nc2c1c(=O)[nH]c(=O)n2C
 : 5	0
O=C(NCc1ccncc1)C(C1CCCC1)N1CCN(C(=O)c2ccc([N+](=O)[O-])cc2)CC1 (configuration not stated)
 : -3	1
CC(C)CN1C(=O)N(C)C(=O)C12CCN(Cc1cccc(Oc3ccccc3)c1)CC2
 : 14	5
O=C(O)c1ccc(CSc2nc(-c3ccccc3)cc(N3CCN(c4ccccc4Cl)CC3)n2)o1
 : 12	9
COc1ccc(-n2ccnc2-c2c(-c3ccccc3)ncn2CCCO)cc1
 : 16	7
COCCOc1nc(-c2ccc(C(F)(F)F)cc2)n(-c2cccc(NC(=O)Nc3cccc(Cl)c3)c2)n1
 : -7	1
O=C(NCc1ccc(F)cc1)c1csc(CN(Cc2ccc(F)cc2)C(=O)Nc2cc(C(F)(F)F)cc(C(F)(F)F)c2)n1
 : -9	0
Cc1cccc2nc(CNS(=O)(=O)N3CCCC3)n(C)c12
 : -24	-21
O=C(Cn1cnc2ccccc21)N1CCC2(CC1)C(=O)Nc1ccccc12
 : -9	-12
Nc1nnc(SCc2ccc(Cl)cc2Cl)s1
 : -13	-15
O=C1c2ccccc2-c2nc3cc4ccccc4cc3nc21
 : 4	2
CCOC(=O)N1CCC(N2CCN(CC(C)(C)C)C(CCO)C2)CC1 (configuration not stated)
 : 2	-2
CCOc1ccc(-c2nc(N)ncc2-c2ccc(Cl)cc2)c(O)c1
 : -1	-5
COCc1cc(N2CCN(C/C=C/c3ccccc3)CC2)nc(SCc2ccc(C(=O)NC3CC3)cc2)n1
 : -13	-5
COc1ccc(-c2cc(C(=O)NC(Cc3ccccc3)c3ccccc3)n(-c3ccc([N+](=O)[O-])cc3)n2)c(OC)c1 (configuration not stated)
 : 8	3
CN(NC(=O)c1ccc2nc(-c3ccccc3)c(-c3ccccc3)nc2c1)c1ccccc1
 : -6	-13
Cc1cc(C)c2nc(C)cc(NC(=O)Cc3cccs3)c2c1
 : 1	9
O=C(Cn1ccn(-c2cccc3ccccc23)c(=O)c1=O)Nc1cccc(Cl)c1
 : 24	22

Single entries from above:
CCOc1ccc(-c2nc(N)ncc2-c2ccc(Cl)cc2)c(O)c1 | NPYLR7 agonist max-min: -5
Cc1cc(C)c2nc(C)cc(NC(=O)Cc3cccs3)c2c1 | NPYLR7 agonist max-min: 9
CCOC(=O)N1CCC(N2CCN(CC(C)(C)C)C(CCO)C2)CC1 (configuration not stated) | NPYLR7 agonist: 2
O=C1c2ccccc2-c2nc3cc4ccccc4cc3nc21 | NPYLR7 agonist: 4
CN(NC(=O)c1ccc2nc(-c3ccccc3)c(-c3ccccc3)nc2c1)c1ccccc1 | NPYLR7 agonist max-min: -13
O=C(Cn1cnc2ccccc21)N1CCC2(CC1)C(=O)Nc1ccccc12 | NPYLR7 agonist max-min: -12
COc1ccc(-c2cc(C(=O)NC(Cc3ccccc3)c3ccccc3)n(-c3ccc([N+](=O)[O-])cc3)n2)c(OC)c1 (configuration not stated) | NPYLR7 agonist max-min: 3

Further entries
Each structure is followed by: NPYLR7 agonist	NPYLR7 agonist max-min
O=C1CCc2cc(NS(=O)(=O)c3ccccc3F)ccc2N1Cc1ccccc1
 : 8	5
Cc1c(C(=O)Oc2coc(CSc3ncccn3)cc2=O)cccc1[N+](=O)[O-]
 : -13	-12
Cc1ccc2nc(C)c(NC(=O)c3c(F)cccc3Cl)c(=O)n2c1
 : 4	1
Cc1nonc1C1CCCN1Cc1nc(-c2cc3c(cc2Cl)OCO3)oc1C (configuration not stated)
 : -2&17	-4&11
O=C(NCc1ccc(F)cc1)c1cnn2c(C(F)(F)F)cc(-c3cccs3)nc12
 : -6	-12
CCN(CCO)c1nc(N2CCOCC2)c2cnn(C)c2n1
 : 2	-1
O=C(Nc1ccc(C(=O)N2CCCC2)cc1)c1c(F)cccc1F
 : -2	0
CNc1cccc(-c2cnn(CC(C)C)c2)n1
 : 1	-3
CCOc1ccc(NC(=O)C(C)Sc2nc(N)cc(N)n2)cc1 (configuration not stated)
 : 0	-3
Cc1ccc(/C=C/S(=O)(=O)NNc2nc(C)cc(C)n2)cc1
 : 6	5
CC1(C)NC(=O)N(CCC#N)C1=O
 : -3	13
Cc1cc(C)n(C)c(=O)c1C(=O)N(C)CC1CCN(c2ccccc2)C1 (configuration not stated)
 : -2	-2
CCOc1ccc(S(=O)(=O)Nc2ccccn2)c2ccccc12
 : 1	7
CC1CCCCN1C(=O)c1ccccc1N1CCC(NC(=O)Cc2ccccc2)CC1 (configuration not stated)
 : -3	-1
Cc1nc(C2CCCC2)sc1C(=O)NCC(=O)Nc1cccnc1
 : 3	2
Cc1cc(C(=O)NCC2(c3ccc(F)cc3)CCOC2)nc(C)n1 (configuration not stated)
 : 0	-5
Cc1ccccc1CN(C)C(=O)c1csc(S(=O)(=O)N2CCOCC2)c1
 : -1	6
CSc1nc(C2CC2)cc(-c2ccccc2)c1C#N
 : 2	4
CCC(C(=O)N(CC(=O)N1CCc2sccc2C1c1ccc(Cl)cc1Cl)Cc1ccco1)c1ccccc1 (configuration not stated)
 : -11	-14
CCN(CC)C1CCN(C(=O)Nc2c(C)nn(C(C)C)c2C)C1 (configuration not stated)
 : -1	1
CCOc1cc(C(=O)OCn2c(SC)nnc(C)c2=O)cc(OCC)c1OCC
 : 4	-1
CN(C)C(=O)C1CCCN1C(=O)c1ccc(Cn2ccnc2)o1 (configuration not stated)
 : -4	-5
CC(=O)NC(C)(C)c1noc(-c2cnn(-c3ccc(Cl)cc3Cl)c2)n1
 : 4	1
CNC(=O)[C@@H]1C[C@@H](N)CN1C(=O)CN1CCC(c2ccccc2)CC1
 : -3	-4
O=C(OC1CCCCC1=O)C1CCCN(C(=O)Cc2ccccc2)C1 (configuration not stated)
 : 0	-5
O=c1cc(COc2ccc(-c3ccccc3)cc2Cl)nc2sccn12
 : 1	4
CCCNC(=O)Cn1cc(OC)c(=O)cc1CN1CCN(c2ccc(OC)cc2)CC1
 : -1	-2
CNC(=O)C1CCN(c2ncnc3sc(C)c(C)c23)C1 (configuration not stated)
 : -1	-4
CC(=O)NC12CC3(C)CC(C)(CC(C)(C3)C1)C2
 : 6	9
Cc1cn2c3c(=O)n(Cc4ccccc4Cl)c(=O)n(C)c3nc2n1C1CCCC1
 : 1	7
Cc1nc(SCc2ccc(C(=O)NCc3ccco3)cc2)nc(N2CCN(c3ccccc3Cl)CC2)c1C
 : 2	7
Cc1nc2ncccn2c1C(=O)N(CC#Cc1ccccc1)C1CCCC1
 : 14	6
Cc1nc(N2CCCC(NC3CCOC3)CC2)nc2cc(S(C)(=O)=O)ccc12 (configuration not stated)
 : 5	4
CCCCN1CCCCC1(C)C(=O)NCc1ccc(OC)cc1 (configuration not stated)
 : 4	1
O=C(Nc1ncc(S(=O)(=O)c2ccc([N+](=O)[O-])cc2)s1)c1cccc(F)c1
 : -4	-9
Cc1ccccc1CN1CCN(c2ncc(C(=O)NCC3CC3)s2)C1=O
 : 0	-3
O=C(c1cc(F)ccc1C(F)(F)F)N1CCCc2c1[nH]c1ccccc21
 : -10	-16
N#CNC1=NC(c2ccccc2)C2=C(N1)C(=Cc1ccccc1)CCC2 (configuration not stated)
 : -5	-8
CCOC(=O)C(=O)Nc1cccc(-c2cccc(-c3ccc(F)cc3)n2)c1
 : -1	4
Cc1ccc(NC(=O)c2ccc(CSc3nnc4ccccn34)cc2)cc1
 : -8	-11
CCn1nnnc1SCC(=O)Nc1cc(F)ccc1F
 : -2	4
O=C(NC1CCOC1)c1ccc2oc(-c3ccc(C(F)(F)F)cc3)nc2c1 (configuration not stated)
 : 5	0
CCN(Cc1ccc(OC)c(F)c1)C(=O)c1cc2ccc(C)cc2[nH]1
 : 14	7
CCN1Cc2ccccc2CC1C(=O)NCc1nncn1C1CCCCC1 (configuration not stated)
 : 18	7
O=C(NNS(=O)(=O)c1cc(Cl)cc(Cl)c1)c1ccc(COc2ccccc2)o1
 : 3	1
COc1ccc(CNC(=O)c2ccc(-n3nc(-c4cccc(C(F)(F)F)c4)cc3N)cc2)c(OC)c1
 : -10	-14
Cc1ccc(Oc2ncccc2CNC(=O)c2ccc3occc3c2)cn1
 : 6	5
CNC(=O)c1sc(N2N=C(c3ccc(OC)cc3)CC2c2ccco2)nc1C (configuration not stated)
 : -1	0
COc1ccc2c(c1)C1(SCCN1C(=O)c1ccccc1F)C(=O)N2Cc1cccc(C(F)(F)F)c1 (configuration not stated)
 : 6	6
CN(C)CC1(O)CCN(C(=O)c2cnn3ccccc23)C1 (configuration not stated)
 : 4	1

The list goes on.
Each structure is followed by: NPYLR7 agonist	NPYLR7 agonist max-min
CC(C)N1CCNC(=O)C1CC(=O)NCCN1CCNC1=O (configuration not stated)
 : 3	3
COc1ccc(C2Oc3ccccc3C3CC(c4ccc(Br)cc4)=NN32)cc1 (configuration not stated)
 : 3	0
CC(C)Oc1ccccc1CNc1ncccc1S(=O)(=O)N1CCCCC1
 : 4	2
CCOc1ccc(OCCCOc2ccc(CC)cc2)cc1
 : 1	17
Cc1noc(-c2cccc(F)c2)c1C(=O)NC1CCc2ccccc21 (configuration not stated)
 : -2	3
CCCN(Cc1cccnc1)Cc1c(C)nn(C)c1Cl
 : 2	0
Cc1cnc(-c2c(-c3ccccc3)ncn2CCc2ccc(O)cc2)[nH]1
 : -2	-2
C=CCn1c(SCc2nc(N)nc(N(C)C)n2)nnc1-c1cccnc1
 : 6	3
CN1CC2(CCN(C(=O)c3coc4c3C(=O)CCC4)C2)OC1=O (configuration not stated)
 : 15	12
COc1ccc(NC(=O)CSc2nc(=O)n(Cc3ccncc3)c3c2CCC3)cc1
 : 2	2
NC(=O)c1cncc(-c2ccc3c(c2)OCCO3)c1
 : 16	7
CSCc1ccc(C(=O)Nc2cc(C)cc(C)c2)cc1
 : -7	-7
Cc1cccc(NC(=O)CNC(=O)CN(C(=O)c2cccc3ccccc23)C2CC2)c1
 : 22	19
COC(=O)c1cn(Cc2ccc(F)cc2C(=O)OC)nn1
 : 9	6
CC(C)c1ccc(-c2ccnc3c(C(=O)N4CCN(c5ccc(Cl)cc5)CC4)cnn23)cc1
 : -5	-8
COc1cccc(C2c3cccn3CCCN2Cc2cc([N+](=O)[O-])ccc2Cl)c1OC (configuration not stated)
 : 26	29
CC1CCCN(S(=O)(=O)c2ccc(C(=O)N3CCN(c4ccc(F)cc4)CC3)cc2)C1 (configuration not stated)
 : 4	-4
CCC(=O)Nc1cccc(OCC(=O)N(C)C(C)c2nccs2)c1 (configuration not stated)
 : 9	9
COc1cc(/C=N\NC(=O)CSc2nc3ccccc3s2)ccc1O
 : 1	-5
O=C(/C=C/c1ccco1)Nc1ncn(Cc2cccnc2)n1
 : 6	3
Cc1ccc(CN(Cc2ccccc2)CC(O)COc2ccccc2C)s1 (configuration not stated)
 : 42	34
CC(C)N(CC(=O)N(CCc1c[nH]c2ccccc12)Cc1ccc(F)cc1)C(=O)Nc1ccc([N+](=O)[O-])cc1
 : 7	10
COCCCN(CC(=O)Nc1cc(C(C)(C)C)nn1-c1cccc(C)c1)C(=O)c1cccc(C(F)(F)F)c1
 : 1	12
COc1ccccc1CC(=O)NC1CCN(c2ccccc2)C1=O (configuration not stated)
 : -3	-6
Nc1nonc1-n1nnc(C(=O)N=Nc2c(O)[nH]c3ccccc23)c1-c1ccccc1
 : -2	0
NC(=O)CN1CCCC(C(=O)NCCCc2ccccc2O)C1 (configuration not stated)
 : 3	-6
CCNc1ncc(C(=O)N2CCN(Cc3ccc(F)cc3)C(=O)C2)cn1
 : 3	-4
CCOc1ccc(NC(=O)CSc2cn(CC(=O)N3CC(C)OC(C)C3)c3ccccc23)cc1 (configuration not stated)
 : -4	-9
O=C(CCN1CCCCC1)Nc1cccc(NC(=O)c2ccc[nH]2)c1
 : -7	-4
O=C(CCN1CCCC1)N1CCCC(N2CCN(c3ccccc3)CC2)C1 (configuration not stated)
 : 6	-1

By substructure, the compounds so far with two or more sulfur atoms (4)
Each structure is followed by: NPYLR7 agonist	NPYLR7 agonist max-min
Nc1nnc(SCc2ccc(Cl)cc2Cl)s1
 : -13	-15
Cc1ccccc1CN(C)C(=O)c1csc(S(=O)(=O)N2CCOCC2)c1
 : -1	6
O=C(Nc1ncc(S(=O)(=O)c2ccc([N+](=O)[O-])cc2)s1)c1cccc(F)c1
 : -4	-9
COc1cc(/C=N\NC(=O)CSc2nc3ccccc3s2)ccc1O
 : 1	-5

An excerpt, so the mix of outcomes need not match the whole.
